Bioassay records deposited in PubChem BioAssay by National Center for Advancing Translational Sciences (NCATS).
StopGo RLuc = lowers the Renilla signal of an FMDV 2A StopGo reporter. 0.32% of 120,000 active. Potency, µM (top dose mostly 57.5 µM), for the others: at the highest dose signal change, negative = less light. HEK cells with a luciferase reporter of 2A StopGo recoding; active means well fitted falling curve with a large enough effect; inconclusive means small, poorly fitted or top-dose-only effect; inactive means no such curve, though single readings can be large or run the other way; further: nearly all actives have a fitted effect of over 55% in size; overnight with compound
2A firefly = lowers the firefly signal of an FMDV 2A StopGo reporter; HEK cells with a luciferase reporter of 2A StopGo recoding; Potency, µM (highest dose often 57.5 µM), for inactives: at the highest dose signal change, negative = less light; 0.23% of 120,000 active; active = well fitted falling curve with a large enough effect; inconclusive = small, poorly fitted or top-dose-only effect; inactive = no such curve, though single readings can be large or run the other way; further: nearly all actives have a fitted effect of over 60% in size; overnight with compound
* = called active by the depositor; ? = inconclusive; & = joins results of further samples; [ ] = dose if it differs, or a comment. On the % scale 0 is the no-effect control and ±100 the full control effect; potency means the concentration at half of the fitted maximal effect.

Start of the listing, in advance:
SMILES | StopGo RLuc | 2A firefly
Cc1ccc2c(=O)cc(C(=O)Nc3ccc(S(=O)(=O)Nc4onc(C)c4C)cc3)oc2c1 | -12%&-7% | -5%&-7%
CCSc1oc(-c2ccc(F)cc2)nc1S(=O)(=O)c1ccc(F)cc1 | -9% | ?

All compounds of this part, from the start:
SMILES | StopGo RLuc | 2A firefly
Cc1ccc2c(=O)cc(C(=O)Nc3ccc(S(=O)(=O)Nc4onc(C)c4C)cc3)oc2c1 | -12%&-7% | -5%&-7%
CCSc1oc(-c2ccc(F)cc2)nc1S(=O)(=O)c1ccc(F)cc1 | -9% | ?
COc1ccc(OC)c(NC(=O)CSc2ccnc(=O)[nH]2)c1 | -11% | -5%
Cn1nc(C(=O)Nc2ccc(C(F)(F)F)cc2)c2ccccc2c1=O | 7% | 35%[activator]
CCN(CC)CCC(=O)Nc1c(C(=O)OC)[nH]c2ccc(C)cc12 | -2% | -1%
COc1ccc(C)cc1CC(=O)N(Cc1ccco1)C1CCS(=O)(=O)C1 (stereo not given) | 2% | 0%
CCOC(=O)C(=O)Nc1c(C(=O)Nc2ccc(OC)cc2)oc2ccccc12 | -9% | 88%[activator]
CC(=O)Nc1cccc(NC(=O)Cn2cc(C(C)=O)c3ccccc32)c1 | ? | ?
CCCn1nc(C(=O)NCc2ccccc2)c2ccccc2c1=O | 19% | -14%
O=NN(CCCl)C(=O)NCCCl | -2% | -3%[11.5 µM]

Full records, quoted from the list. Order of values: StopGo RLuc, 2A firefly
CCSc1oc(-c2ccc(F)cc2)nc1S(=O)(=O)c1ccc(F)cc1 is listed as -9%, ?
CCN(CC)CCC(=O)Nc1c(C(=O)OC)[nH]c2ccc(C)cc12 is listed as -2%, -1%
CCCn1nc(C(=O)NCc2ccccc2)c2ccccc2c1=O is listed as 19%, -14%

Carrying on:
SMILES | StopGo RLuc | 2A firefly
Cc1cc(N2CCC(C)CC2)nc2ccc(NC(=O)c3ccc(N(C)C)cc3)cc12 | -4% | 65%[activator]
Cc1ccc(NS(=O)(=O)c2cc([N+](=O)[O-])ccc2N/N=C/c2ccccc2)c(C)c1 | 120%[activator] | -3%
CCn1c(SCC(=O)Nc2ccc(C)cc2F)nnc1C(C)NC(=O)c1ccco1 (stereo not given) | -3% | 0%
CCCCCC(C)NC(=O)c1ccc(C)c(C)c1 (stereo not given) | ? | -10%
O=C(Nc1ccccc1)c1cccnc1NCc1ccccc1 | -9% | -13%
CC(Sc1ncccn1)C(=O)c1ccc(F)cc1 (stereo not given) | -1% | ?
O=C1CSC(c2ccc(Br)cc2)N1c1cccc(C(F)(F)F)c1 (stereo not given) | 16% | 0%
COc1ccc(CNC(=O)C=C(C)C)cc1 | 9% | 0%
C/C=C/C=C(\NC(=O)c1cccc(C)c1)C(=O)O | 2% | 7%
Cc1ccc(-c2c(C(N)=O)c(C)nc3sc4c(c23)CCCC4)cc1 | -14% | -18%
CCCCC(=O)N1CCCC2CCCCC21 (stereo not given) | 6% | 0%
CCC1CCc2sc(C(=O)NCc3csc(-c4ccccc4)n3)cc2C1 (stereo not given) | 3% | -9%
COc1ccccc1-n1cnc2cc(C(=O)NC3CC(C)(C)NC(C)(C)C3)ccc2c1=O | 13% | 89%[activator]
O=C(CN1CCCC1c1ccc2c(c1)OCCCO2)Nc1cc(Cl)ccc1F (stereo not given) | 20% | -1%
C=CCOc1ccc(NC(=O)CC)cc1 | -6% | 54%[activator]
CN(CC(=O)Nc1c(Cl)cccc1Cl)C(=O)CNC(=O)c1ccco1 | 0% | 5%
CCOc1ccc(-c2nc(C#N)c(N3CCCC3)o2)cc1 | 4% | 17%
COc1cc2c(cc1OC)C(C)N(C(=O)c1cc(Cl)cc(Cl)c1)CC2 (stereo not given) | ? | ?
CN1CCC/C(=C\Cl)C1=O | 1% | 7%
O=C(O)C(c1c[nH]c2cc(Br)ccc12)N1CCN(c2ncc(Br)cn2)CC1 (stereo not given) | -3% | 4%
COc1ccc(-c2cn3nc(N4CCC(C(=O)Nc5cccc(OC)c5)CC4)sc3n2)cc1 | -18% | 59%[activator]
CCC(Cc1ccccc1)NC(=O)c1oc(=O)c2ccccc2c1-c1ccccc1 (stereo not given) | 31%[activator] | -16%
CSc1ccc(-c2nnc(NC(=O)c3ccc4c(c3)OCCO4)o2)cc1 | -10% | -14%
O=C(CCNS(=O)(=O)c1ccc(Br)s1)Nc1ccc(Br)cc1 | 163%[activator] | 2%
CCCNC(=O)CSc1ncc(-c2ccc(Cl)cc2)o1 | 2% | 92%[activator]
COC(=O)c1ccccc1NC(=O)Cn1c(=O)cc(C)c2c(C)nn(C)c21 | -34% | -1%
Cc1cccc(CSc2ccc(-c3cccs3)nn2)c1 | -3% | 86%[activator]
CCOCCCNc1nc2c(c(=O)n(Cc3ccc(F)cc3)c(=O)n2C)n1C | 5% | -1%
O=C(NC1CC(=O)N(c2ccccc2)C1)C(c1ccccc1)c1ccccc1 (stereo not given) | 3% | -20%
COc1ccc(Oc2c(C)oc3cc(OCC(=O)N4CCCCCC4)ccc3c2=O)cc1 | -6% | 3%

Reformatted with two lines to a compound: entries from further up.
The line under a structure holds: StopGo RLuc, 2A firefly
CCCNC(=O)CSc1ncc(-c2ccc(Cl)cc2)o1
→ 2%, 92%[activator]
COC(=O)c1ccccc1NC(=O)Cn1c(=O)cc(C)c2c(C)nn(C)c21
→ -34%, -1%
Cc1cccc(CSc2ccc(-c3cccs3)nn2)c1
→ -3%, 86%[activator]
CCOCCCNc1nc2c(c(=O)n(Cc3ccc(F)cc3)c(=O)n2C)n1C
→ 5%, -1%
O=C(NC1CC(=O)N(c2ccccc2)C1)C(c1ccccc1)c1ccccc1 (stereo not given)
→ 3%, -20%
COc1ccc(Oc2c(C)oc3cc(OCC(=O)N4CCCCCC4)ccc3c2=O)cc1
→ -6%, 3%

Next part
SMILES | StopGo RLuc | 2A firefly
Cc1ccc(CNC(=O)CCSCc2ccccc2F)cc1 | 4% | -2%
O=C(CCNS(=O)(=O)c1ccc2c(c1)CCCC(=O)N2)NCc1ccc(Cl)cc1 | 46%[activator] | 17%
COc1ccccc1-c1nnc(SCC(=O)Nc2ccc(N(C)C)cc2)n1-c1ccccc1 | 137%[activator] | 0%
CC(C)C(C#CC(O)(c1ccccc1)c1ccccc1)N(C)C (stereo not given) | 1% | 1%
O=C(CN1CCN(c2ccccc2)CC1)NCC(F)(F)F | -14% | -10%
CC(=O)c1cccc(NC(=O)CN2C(=O)CC(c3ccc(C)cc3C)=Nc3ccccc32)c1 | -6% | -5%
CC(C)NC(=O)NC(=O)Cn1cnc2c1c(=O)n(C)c(=O)n2C | 7% | 7%
Cc1c(C(=O)Nc2ccc(F)cc2F)sc2nc3n(c(=O)c12)N=C(c1ccccc1)CS3 | -11% | 72%[activator]
Cc1nc(-c2ccccc2Cl)sc1C(=O)NC1C=CS(=O)(=O)C1 (stereo not given) | ? | -10%
CCc1ccc(C2N=C(N)Nc3nc4ccccc4n32)cc1 (stereo not given) | -7%&1% | 5%&-4%
COc1ccc(CNCC(O)COc2ccc(C(C)(C)C)cc2C)cc1OC (stereo not given) | -4% | -9%
CC(=O)c1ccc(S(=O)(=O)Nc2ccc(C(=O)N3c4ccccc4CC3C)cc2)cc1 (stereo not given) | 5% | ?
CCCCS(=O)(=O)CCSCCO | 0% | 40%
Cc1cc(=O)oc(C)c1C(=O)Nc1cc(C(F)(F)F)cc(C(F)(F)F)c1 | -21% | -20%
Cc1ccc(C(C)NC(=O)Nc2ccc(F)cc2F)cc1 (stereo not given) | 8% | 14%
CC(C(=O)N(C)CC(=O)Nc1ccccc1C(F)(F)F)N1CCN(c2cccc(Cl)c2)CC1 (stereo not given) | 6% | 0%
CCOc1ccc(N=Cc2ccc(N(C)C)cc2)cc1 | 2% | 14%
COc1ccc(-n2c(SCc3nc(-c4ccc(C)cc4)no3)nnc2-c2ccccc2)cc1 | -10% | -9%
COCCCNC(=O)Cn1c(=O)n(-c2ccc(C)c(C)c2)c(=O)c2c3c(sc21)CCCCC3 | -5% | -14%
Cc1ccc(-n2ncc(C(=O)NCCCN3CCc4ccccc4C3)c2C2CCN(C(=O)OC(C)(C)C)CC2)c(C)c1 | -1% | -17%

Next section; the last two above are carried over.
SMILES | StopGo RLuc | 2A firefly
COCCCNC(=O)Cn1c(=O)n(-c2ccc(C)c(C)c2)c(=O)c2c3c(sc21)CCCCC3 | -5% | -14%
Cc1ccc(-n2ncc(C(=O)NCCCN3CCc4ccccc4C3)c2C2CCN(C(=O)OC(C)(C)C)CC2)c(C)c1 | -1% | -17%
COc1cccc(C2C(C#N)=C(N)OC3=C2S(=O)(=O)N(C)c2ccccc23)c1OC (stereo not given) | 0% | -1%
COc1ccc(CCNC(=O)c2cccn2-c2nnc(N3CCCCCC3)s2)cc1OC | 114%[activator] | 65%[activator]
O=S(=O)(NCc1ccccc1Cn1cccn1)c1c(Cl)cccc1Cl | 137%[activator] | 22%
O=C(NC1CCCCC1)c1nn(Cc2ccccc2)c(=O)c2ccccc12 | -7% | -3%
Cc1ccc(C(=O)NCc2ccncc2)c(C)c1 | -7% | 8%
Cc1ccc(CNc2ccc(-c3nc(-c4ccccn4)no3)cc2[N+](=O)[O-])cc1 | -3% | 134%[activator]
COc1ccc(Nc2ncc(C(=O)Nc3cc(Cl)ccc3OC)c3ccccc23)cc1 | 0% | 6%
COc1ccc2c(=O)c(-c3ccccc3)c(C(F)(F)F)oc2c1 | -13% | 3%
COc1ccc(NC(=O)CN(C)S(=O)(=O)c2ccc3c(c2)CCC(=O)N3)c(OC)c1 | -13% | -3%
N[C@@H](Cc1cc(I)c(O)c(I)c1)C(=O)O | -4% | -11%
CC1CCN(c2nc3ccc(C(=O)NCc4ccccc4Cl)cc3s2)CC1 | 26% | ?
O=C(N/N=C1\CC2CCC1C2)c1sc2ccccc2c1Cl (stereo not given) | 6% | 47%[activator]
Cc1cc2c(cc1S(=O)(=O)CCC(=O)NC1CCC(C)CC1)OCC(=O)N2 (stereo not given) | -9% | -12%
COc1ccccc1NC(=O)CCS(=O)(=O)c1ccc2nc(C)sc2c1 | 6% | -8%
COc1ccc(NC(=O)CCS(=O)(=O)c2cc3c(cc2C)NC(=O)CO3)cc1Cl | 4% | -9%
Cc1c(O)ccc2c(=O)c(-c3nc4ccccc4s3)coc12 | 3% | 0%
CC(NC(=O)CCc1ccco1)C1CCCO1 (stereo not given) | -8% | 12%
CCCOC(=O)c1ccc(NC(=O)C2CC(=O)N(c3ccc(C)cc3)C2)cc1 (stereo not given) | -4% | -9%
Cc1cccc(-c2nc3c(C#N)c[nH]n3c2NC2CCCCC2)c1 | 12% | 41%[activator]
COc1ccc(S(=O)(=O)N(CC(=O)NCCSCc2ccccc2)c2ccc(C)cc2)cc1 | 9% | -12%
Cc1cc(C(=O)NCC(C)c2ccccc2)c2cccc(C)c2n1 (stereo not given) | 32%[activator] | 5%
CC(c1cccs1)N(C)C(=O)Cc1c[nH]c2ccccc12 (stereo not given) | 232%[activator] | 9%
CCOc1ccccc1-c1nc(SCC(=O)c2ccc(OC)c(Br)c2)n[nH]1 | -21% | -17%
O=C(Nc1ccc(NC(=O)c2cccs2)cc1)c1ccc(Br)cc1 | 57%[activator] | -15%
COc1cc(/C=C(\C#N)c2nc3ccccc3[nH]2)cc(Br)c1OC | ? | ?
CS(=O)(=O)c1nc2ccccc2[nH]1 | -7%[1.06 µM] | 3%
CNc1c(NC(=O)c2cccc(F)c2)c(=O)oc2ccccc12 | -8% | -3%
COc1ccc(Cn2c(CO)cnc2SCc2ccccc2C)cc1 | 36%[activator] | 32%[activator]
COc1ccc(NC(=O)Cn2c(C)cc3ccccc3c2=O)c(OC)c1 | -12% | -16%
COCCCNc1oc(-c2ccc([N+](=O)[O-])cc2)nc1C#N | 3% | 53%[activator]
CC(=O)Nc1ccc(NC(=O)Cn2ccc3c(Cl)cccc32)cc1 | 0% | 6%
COc1cccc2cc(C(=O)NCc3nc(-c4ccccc4)no3)oc12 | 9% | -3%
Cc1ccc2ccc(C(Nc3ccccn3)c3ccccc3)c(O)c2n1 (stereo not given) | -17% | 11%
O=C(COc1ccccc1)Nc1ccccc1C(=O)OCc1cc(=O)n2nc(C3CC3)sc2n1 | -2% | -5%
Cc1ccc(C(c2sc3nc(-c4ccco4)nn3c2O)N2CCN(Cc3ccccc3)CC2)cc1 (stereo not given) | 24% | 1%
CCN1CCN(c2oc(/C=C/c3cc(OC)c(OC)c(OC)c3)nc2C#N)CC1 | -9% | -9%
COc1cc(-c2nc3ncccn3c2Nc2ccc(C)cc2C)ccc1O | 6% | 0%
Cc1ccc(NS(=O)(=O)c2ccc(-c3coc(C)n3)cc2)c(C)c1 | 14% | 19%
Cc1oc2cc(OC(C)C(=O)Nc3ccc4c(c3)OCO4)ccc2c(=O)c1-c1ccccc1 (stereo not given) | -11% | -4%
COc1ccc(Cc2nc3c4cnn(-c5ccccc5F)c4ncn3n2)cc1 | -4% | 76%[activator]
Cc1ccc(-n2c(SCC(=O)NC(N)=O)nnc2N2CCCCC2)cc1 | -13% | -3%
CCOc1cc2c(cc1NC(=O)CC1CCCC1)OC(C)C2 (stereo not given) | -5%[1.06 µM] | 0%
CNC(=O)C(=O)NC1CC(C)(C)NC(C)(C)C1 | -1% | 12%
O=C(c1cc(Cl)ccc1Cl)N1CCC(c2nc3ccccc3o2)CC1 | 21% | 7%
O=C1CCc2c(Cl)cc(Cl)c(O)c21 | -8% | 9%
O=C1Cc2cc(S(=O)(=O)N3CCN(c4ccccc4)CC3)ccc2N1 | -8% | -8%
CN1CCN(C(CNC(=O)C(=O)Nc2ccc(F)cc2)c2cccnc2)CC1 (stereo not given) | -17% | 37%[activator]
CN(C)C(=O)CN1CCCN(C(=O)C2CCN(S(=O)(=O)c3ccc(F)c(Cl)c3)CC2)CC1 | -9% | 66%[activator]
COc1ccc(OCC(=O)N2CCN(C(=O)c3cc(OC)c(OC)c(OC)c3)CC2)cc1 | -3% | 0%
